Sa helicase inh: blocks Staphylococcus aureus DNA helicase; inhibition, %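 (tested at about 80 µM)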; 120,000 compounds, 0.05% hits; purified S. aureus helicase, fluorescence unwinding assay; about half of the hits fall short of the stated cut;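 active = both duplicates at 50% or more, or one of them with a favoured structure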;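 note: 0% = mean of negative control wells and 100% = mean of positive control wells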
MgrA-DNA mod: S. aureus MgrA-DNA binding modulation; inhibition, %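 (about 10 µg/mL by stock and volumes)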; AID 602314; fluorescence polarization; 84,000 compounds, 0.13% hits;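 active = above 50% in either of two replicates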;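 note: 0% = protein plus DNA without compound and 100% = DNA alone without protein; higher means less MgrA bound to DNA so lower polarization; one replicate is shown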
Numbers without * were called inactive; . = not tested or not shown; & = joins results of further samples. A portion of the library; rates above refer to the full screens.

SMILES	Sa helicase inh	MgrA-DNA mod
NCC1OC(O[C@@H]2C(O)[C@H](OC3C(O)C(N)CC(N)C3OC3OC(CO)C(O)C(O)C3N)O[C@@H]2CO)C(N)C(O)C1O (stereo not given in full)	.	-0.4
O=C(c1ccco1)N1CCCn2c(SCc3ccccc3)nnc21	.	-0.2
O=c1cc(NCc2cccs2)[nH]c(=O)n1-c1ccc(Br)cc1	6	.
CCOC(=O)c1sc(SCc2cccc(Cl)c2)c(S(=O)(=O)C(C)C)c1-n1cccc1	7	.
Cc1nnc(-c2ccccc2)c(=O)n1/N=C/c1ccc(O)c(O)c1	15	0.0
c1ccc(N(c2ccccc2)c2nc(-c3ccco3)cs2)cc1	2	.
CC(C)c1ccc(NC(=O)/C=C/C(=O)O)cc1	.	1.9
CCOc1ccc(OCC)c(S(=O)(=O)N2CCC(C)CC2)c1	1	1.1
C=CCn1c(SCC(=O)c2ccc(CC)cc2)nnc1-c1cccc(OC)c1	7	-2.1
CC(=O)Oc1ccc2c(=O)c(-c3nc4ccccc4n3C)c(C)oc2c1	.	-2.2
CC1CCCC(C)N1/N=C/c1ccccc1OC(F)F (stereo not given)	-9	.
CCOC(=O)c1ccc2c(c1)C(=O)N(c1ccccc1OC)C2=O	18	-0.6
COCCCn1c(-c2c(C)oc3ccccc23)cs/c1=N\S(=O)(=O)c1ccccc1	12	.
CC(NC(=O)CSCc1cnn(-c2ccccc2)c1-n1cccc1)c1ccccc1 (stereo not given)	-16	.
CC(C)C(C(=O)Nc1nccs1)N1C(=O)c2ccccc2C1=O (stereo not given)	5	.
CSC1=NCCN1C(=O)c1ccc(Cl)cc1	.	-0.3
O=C(O)c1cnn(-c2ccccc2)c1	10	.
COc1ccc(-n2nc3ccc(NC(=O)c4ccc(-c5ccccc5)cc4)cc3n2)cc1	25	0.5
O=C1S/C(=C/c2ccccc2Cl)C(=O)N1c1ccccc1	8	2.7
CCOC(=O)c1c(NC(=O)c2noc3c2CCCCC3)sc(C)c1C	2	.
O=C(O)c1cccc(N2C(=O)/C(=C\c3ccc4c(c3)OCO4)SC2=S)c1	15	.
NC(=O)CSc1nc2c(sc3ccccc32)c(=O)n1CCCN1CCOCC1	4	.
CSc1nnc(-c2ccncc2)n1-c1ccccc1C	-16	.
c1ccc2c(c1)N1CCN2CC1	-9	.
CCOC(=O)C(Sc1nnc(C(CC)N(C)C)n1Cc1ccccc1)c1ccccc1 (stereo not given)	-16	.

Another view of some results above.
Order of results – Sa helicase inh | MgrA-DNA mod
CCOc1ccc(OCC)c(S(=O)(=O)N2CCC(C)CC2)c1
  1 | 1.1
C=CCn1c(SCC(=O)c2ccc(CC)cc2)nnc1-c1cccc(OC)c1
  7 | -2.1
CC(=O)Oc1ccc2c(=O)c(-c3nc4ccccc4n3C)c(C)oc2c1
  . | -2.2
CC1CCCC(C)N1/N=C/c1ccccc1OC(F)F (stereo not given)
  -9 | .
CCOC(=O)c1ccc2c(c1)C(=O)N(c1ccccc1OC)C2=O
  18 | -0.6
COCCCn1c(-c2c(C)oc3ccccc23)cs/c1=N\S(=O)(=O)c1ccccc1
  12 | .
CC(NC(=O)CSCc1cnn(-c2ccccc2)c1-n1cccc1)c1ccccc1 (stereo not given)
  -16 | .
CC(C)C(C(=O)Nc1nccs1)N1C(=O)c2ccccc2C1=O (stereo not given)
  5 | .
CSC1=NCCN1C(=O)c1ccc(Cl)cc1
  . | -0.3
O=C(O)c1cnn(-c2ccccc2)c1
  10 | .
COc1ccc(-n2nc3ccc(NC(=O)c4ccc(-c5ccccc5)cc4)cc3n2)cc1
  25 | 0.5
O=C1S/C(=C/c2ccccc2Cl)C(=O)N1c1ccccc1
  8 | 2.7
CCOC(=O)c1c(NC(=O)c2noc3c2CCCCC3)sc(C)c1C
  2 | .
O=C(O)c1cccc(N2C(=O)/C(=C\c3ccc4c(c3)OCO4)SC2=S)c1
  15 | .
NC(=O)CSc1nc2c(sc3ccccc32)c(=O)n1CCCN1CCOCC1
  4 | .
CSc1nnc(-c2ccncc2)n1-c1ccccc1C
  -16 | .
c1ccc2c(c1)N1CCN2CC1
  -9 | .
CCOC(=O)C(Sc1nnc(C(CC)N(C)C)n1Cc1ccccc1)c1ccccc1 (stereo not given)
  -16 | .

Additional compounds.
SMILES	Sa helicase inh	MgrA-DNA mod
COc1ccc(Oc2ccc3[nH]c4c(c3c2)CCCC4=O)cc1	-13	.
NC(=O)N/N=C1\CCCC1c1ccccn1 (stereo not given)	-12	.
COC(=O)CSc1ncnc2ccccc12	-14	.
O=C(O)C1CC(=O)N(CCc2ccc(Cl)cc2)C1 (stereo not given)	.	-3.9
CC(=O)Nc1ccc(-c2nc3c(Cl)cccc3[nH]2)cc1	10	.
Cc1ccc2c(CC(=O)NCC(C)C)coc2c1	-25	.
Cc1ccccc1NC(=O)C1C2C3CCC(C3)C12 (stereo not given)	8	-0.7
O=C(O)CCCc1nc2cc3ccccc3cc2[nH]1	-1	-3.8
O=C(O)CNc1ccc(C(=O)O)cc1	8	2.0
Cc1cc2nc(NCC(C)O)c3ccccc3n2n1 (stereo not given)	-2	.
CCOC(=O)CSc1nc2cc3c(cc2c(=O)n1CCCC(=O)NCc1ccc(OC)cc1)OCO3	-1	.
CCN(c1ccccc1)S(=O)(=O)c1ccc2c(c1)N(C(C)=O)CC(C)O2 (stereo not given)	-19	.
CC1=Cn2c(nc3ccccc3c2=O)CN1NC(=O)NC1CCCCC1	-12	.
Cc1cc(NC(=O)c2ccc(N(C)C)cc2)no1	-23	.
CC(C)=C1C(=O)NN(c2ccccc2)C1=O	24	.
COc1ccc(C(=O)N(CC(=O)NC2CCCC2)C2CCCCC2)cc1OC	4	0.1
CC1=NN(c2ccc(F)cc2)C(=O)C1	.	-3.3
Cc1cc(C)c(N=C(NN)N(C)C)cc1C	.	-0.2
O=C1NC(=Nc2ccccc2Cl)S/C1=C\c1ccc2c(c1)OCO2	.	-2.1
CCCn1c(=N)n(CC(=O)C(C)(C)C)c2ccccc21	3	-2.9
CC1CCCC(C)N1CCCNC(=O)C1c2ccccc2C(=O)N1CCc1ccc(Cl)cc1 (stereo not given)	8	-5.0
O=C(O)CCc1nc2ccccc2n1-c1ccccc1	-10	0.5
Cc1cc2oc(=O)cc(-c3cc4ccccc4o3)c2cc1OCC(N)=O	5	.
COC(=O)c1sccc1N/N=C(\C#N)S(=O)(=O)c1cccs1	20	.
NC(=O)C1(NC2CCCCC2)CCCCC1	.	-1.7
SMILES	Sa helicase inh	MgrA-DNA mod
COC(=O)C1=C(C)NC(=O)NC1c1cc2c(cc1Cl)OCO2 (stereo not given)	6	.
NC(=O)C1CCCN(C(=O)NC2CCCCC2)C1 (stereo not given)	3	0.6
CCOC(=O)C1CCN(c2cc(C(F)(F)F)nc3ccc(C)cc23)CC1	.	0.1
CCOC(=O)CN1C(=O)N(Cc2ccc(F)cc2)S(=O)(=O)c2ccccc21	5	.
CCCN(CCC)S(=O)(=O)c1ccc(F)c(C(=O)Nc2cc(C)ccc2OC)c1	10	2.4
C=CCn1c(P(=O)(O)c2ccccc2)nc2ccccc21	11	-1.1
Cc1ncc(CO)c(/C=N/O)c1O	.	1.7
CCC(=O)N1CCc2cc(S(=O)(=O)Nc3ccc(OC(F)(F)F)cc3)ccc21	37	.
COc1ccc2c(c1)CCC/C(=N/O)C2=O	-1	-1.7
C[C@@H](C(=O)OCC(N)=O)N1C(=O)C2CC=CCC2C1=O (stereo not given in full)	-14	.
CCN(Cc1nc2cc(Cl)ccc2c(=O)[nH]1)C(=O)c1cccc(NC(C)=O)c1	-25	.
Cc1scc(CN2CCC3(CC2)OCCO3)c1C	3	-3.5
Cc1ccc(S(=O)(=O)Nc2cccc3nnc(C)cc23)cc1	.	-1.5
CCc1cccc(N2C(=O)C(Cc3ccccc3)N=C2N(Cc2ccco2)C2CCCC2)c1 (stereo not given)	2	.
N#CCSc1ccccc1NC(=O)COC(=O)c1ccc(CN2CCCC2=O)cc1	-78	.
CC(=O)NC1(C2CCCCC2=O)CCCCC1 (stereo not given)	4	.
Cc1ccc(OCC(=O)NCc2ccccc2)cc1	6	1.9
CC(C)=NNC(=S)Nc1ccc(C)cc1C	.	3.8
CN1CC(C(=O)O)CC1=O (stereo not given)	16	-2.9
Cc1cccc(C(=O)N[C@@H]2C(=O)Nc3c(c(C)nn3C)[C@H]2c2ccccc2)c1	-18	.
Cc1ccc(-n2ncc3c(=O)n(CC(=O)NCc4ccccc4Cl)cnc32)cc1C	14	4.5
O=C1CC(N2CCN(S(=O)(=O)c3ccc(Cl)cc3)CC2)C(=O)N1CCc1ccccc1 (stereo not given)	-2	.
Cc1ccc(S(=O)(=O)N2CC3(C)CN(S(=O)(=O)c4ccc(C)cc4)CC(C)(C2)C3)cc1	10	2.2
Cc1onc(-c2c(Cl)cccc2Cl)c1NC(=O)Oc1ccc(CC#N)cc1	.	1.1
CCN=C1Cn2c(nc3scc(-c4ccccc4)c3c2=O)CN1CC	-28	.
SMILES	Sa helicase inh	MgrA-DNA mod
Cc1ccc2c(c1)N(CC(=O)NC1CCCc3ccccc31)C(=O)c1cccnc1O2 (stereo not given)	16	.
Cc1noc(C)c1COC(=O)CCc1nc2cc(C(F)(F)F)ccc2n(Cc2ccccc2)c1=O	10	.
COc1cc(S(=O)(=O)Nc2cccnc2)ccc1Cl	-20	.
CC(C)(C)c1ccc(-c2cc3ccccn3c2)cc1	8	4.2
O=C(CN1CCCCC1)NC(=O)NC1CCCCC1	11	.
CCOC(=O)N1CCN(CC(=O)NC(C)C)CC1	-6	.
CC(C)=CCC/C(C)=C/CO	.	0.5
CC(=O)N1N=C(c2c(-c3ccccc3)c3cc(Cl)ccc3[nH]c2=O)CC1c1ccco1 (stereo not given)	-7	3.5
O=S(=O)(c1cccc(Cl)c1Cl)N1CCN(c2ncccn2)CC1	-16	.
Cc1ccc(S(=O)(=O)N2CCOCC2)cc1C(=O)OCC(=O)N1CCc2ccccc2C1	-6	.
CCCS(=O)(=O)N1CCN(C2CCN(C(=O)OCC)CC2)CC1	6	-0.6
O=C(c1ccccc1)C1CCN(C(=O)C(F)(F)F)CC1	.	-0.7
OC(COc1ccc(Cl)cc1)CN1CCc2ccccc2C1 (stereo not given)	-9	-1.3
O=c1c2cnn(CCO)c2ncn1C/C=C/c1ccccc1	3	.
COc1ccc(S(=O)(=O)N2CCCCC2)cc1-c1nnc2c3ccccc3c(C)nn12	18	.
CCn1c(=O)[nH]c2cc(C(=O)N3CCN(c4ccccc4)CC3)ccc2c1=O	9	-1.1
CC(C)n1c2ccccc2c2nnc(SCC(=O)Nc3nc4c(s3)CCCC4)nc21	-3	.
COc1ccc2cc(/C=N/NC(=O)CN3CCOCC3)c(Cl)nc2c1	-41	.
Cc1ccc(NC(=O)COC(=O)c2ccc(S(=O)(=O)NCCC#N)cc2)cc1	-4	.
NC[C@H]1O[C@H](O[C@H]2C(O[C@@H]3O[C@H](CO)[C@@H](O)[C@H]3O)[C@@H](O)[C@H](N)C[C@@H]2N)[C@H](N)[C@@H](O)[C@@H]1O (stereo not given in full)	.	1.3
CC(C(=O)Nc1ccc(CN2CCOCC2)cc1)n1sc2ccccc2c1=O (stereo not given)	19	.
CN(C)c1ccc(C2N=C(c3ccc(Cl)cc3)NN2)cc1 (stereo not given)	.	-1.6
COC(=O)c1ccccc1NC(=O)CN(c1ccccc1)S(=O)(=O)N(C)C	-9	.
CCCN(CCC)C(=O)C1CCCN1/C=C/C(=O)C(F)(F)F (stereo not given)	-16	.
COc1ccc(C2NC(=O)c3ccccc3N2)cc1 (stereo not given)	21	.
SMILES	Sa helicase inh	MgrA-DNA mod
Cn1c(-c2ccco2)[n+](C)c2ccccc21	-12	-1.7
CCN(CC)c1nc2ccccc2[nH]c1=O	-14	.
O=C(O)CN1C(=O)S/C(=C\c2ccc(Br)cc2)C1=O	-32	.
COC(=O)c1ccc(Cn2cnc3c(nnn3-c3cc(C)cc(C)c3)c2=O)o1	2	.
Cc1cc(N2CCOCC2)c2c(N)cc(C)c(C)c2n1	15	0.7
CCOC(=O)c1c(N2C(=O)CCC2=O)sc(C)c1-c1ccccc1	.	-0.6
N#Cc1ccc(C(=O)n2nc3c4c(cccc42)C(=O)c2ccccc2-3)cc1	-12	.
Cc1ccc(-c2nn(C)c(=O)c3ccccc23)cc1CNC(=O)CSc1nc2ccccc2s1	10	4.0
CCCCN(Cc1cc2ccccc2[nH]c1=O)S(=O)(=O)c1ccccc1	-15	.
CC1(C)Cc2c(c(N3CCCCC3)nc3sc(C#N)c(N)c23)CO1	4	7.5
CCOC(=O)C1C(=O)N(C(=O)c2cncc(Br)c2)CC1c1ccccc1 (stereo not given)	8	0.6
COc1ncnc2c(C)csc12	.	-2.5
Cc1cc(C(=O)OCC(=O)c2ccc(Cl)cc2)ccc1[N+](=O)[O-]	.	-1.1
O=C(CCC1CCCC1)Nc1ccc2c(c1)OCO2	2	-2.7
Cc1onc(-c2c(Cl)cccc2Cl)c1C(=O)NCCSC1=NCCN1	.	-0.3
CCNc1nc(N)c(C(=O)c2ccc(Cl)s2)s1	6	3.0
Cn1c(Cl)c(CN)c2ccccc21	-12	-0.1
CCOC(=O)C1=C(C)N=c2s/c(=C/c3ccc(OC(C)=O)cc3OC(C)=O)c(=O)n2C1c1ccccc1Cl (stereo not given)	.	-0.7
COC(=O)c1ccc(/C=C(\C#N)C(=O)NC2CCCCC2)cc1	3	.
CCCn1c(SCCO)nc2ccccc21	8	.
Brc1cccc(-c2nnc3sc(CNCc4ccc5c(c4)OCO5)cn23)c1	8	.
Cc1nc2ccc(S(=O)(=O)N3CCCCC3)cc2s1	6	0.1
S=C(Nc1ccccc1)N1CCCN1c1ccccc1	4	1.4
O=C1/C(=C/c2ccco2)CCC1C1CCCC1 (stereo not given)	7	.
CNC(=O)CCc1nc(-c2ccc(OC)cc2)no1	-16	.
NS(=O)(=O)c1cc2c(cc1Cl)NC(C(Cl)Cl)NS2(=O)=O (stereo not given)	.	2.5&0.8
